Bioassay records deposited in PubChem BioAssay by National Center for Advancing Translational Sciences (NCATS).
PINK1 modulator: modulators of PINK1 expression; PINK1 immunofluorescence, high-content cytometry, 24 h; Potency, µM (doses to about 76.6 µM), for the others: top-dose activation (PINK1 increase), hits mostly activators; 0.2% of 410,000 active; AID 624263; active = well fitted activation curve with a large enough effect; inconclusive = small, poorly fitted or top-dose-only effect; inactive = flat fitted curve, though single readings scatter; cell line not stated here;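 further: potency means the concentration at half of the fitted maximal effect; % of control where 0% means no effect; nearly all actives have a fitted effect of over 65% in size; a mitochondrial uncoupler was the plate control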
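Fluorescence from anti-PINK1 antibody, together with nuclear and cell stains, was scanned on a laser-scanning cytometer. Before staining, stable-line cells were incubated 24 hours with compounds at 5 concentrations; primary antibody 12 h at 10 degrees C.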
gsp ag: activates gsp, the McCune-Albright syndrome mutation | gsp mutant cells, cAMP HTRF, 30 min; control for the full effect not named in the record | Potency, µM (series often up to 76.9 µM), for the others: top-dose activation (cAMP increase), usual class: activators | 0.13% of 340,000 active | AID 624287; active = well fitted activation curve with a large enough effect; inconclusive = small, poorly fitted or top-dose-only effect, or another doubt; inactive = no such curve, though single readings can be large or run the other way; cell line not stated here;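 further: phosphodiesterase inhibitor Ro 20-1724 added with compounds to block cAMP breakdown; potency means the concentration at half of the fitted maximal effect; nearly all actives have a fitted effect of over 60% in size; about a fifth of the inactives were tested at one dose only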
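Cells in DMEM/10% FBS with G418 were pretreated with compounds in DMSO plus […] (300 uM stock) for 30 min at 37C. cAMP was measured by HTRF (cAMP-d2 plus anti-cAMP antibody-K) after 30 min at room temperature.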
ClpP mod: qHTS Assay for Activators of ClpP; ATP-dependent Clp protease proteolytic subunit (Bacillus subtilis (strain 168)), P80244; purified B. subtilis ClpP, FRET peptide cleavage, 20 min; Potency, µM (highest dose often 57.5 µM), for inactives: at the highest dose activity change, negative = active; 1.9% of 340,000 active; AID 651965, 2013; active = well fitted falling curve with a large enough effect; inconclusive = small, poorly fitted or top-dose-only effect; inactive = no such curve, though single readings can be large or run the other way; further: potency means the concentration at half of the fitted maximal effect; the source files actives as falling curves though it sought activators and does not explain the sign; nearly all actives have a fitted effect of over 65% in size; many hits overshoot -100%
Target sequence (P80244 whole entry, looked up): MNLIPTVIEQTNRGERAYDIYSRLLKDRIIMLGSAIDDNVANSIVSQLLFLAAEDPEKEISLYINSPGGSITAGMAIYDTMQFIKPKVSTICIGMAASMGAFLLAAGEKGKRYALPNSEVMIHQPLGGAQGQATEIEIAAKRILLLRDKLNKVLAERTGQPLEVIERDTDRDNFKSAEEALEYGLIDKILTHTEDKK
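FRET quenching reversal measured ClpP activation: 10 microg/mL B. subtilis ClpP at pH 8 with the FRET-FV decapeptide, read at 430 nm after 320 nm excitation. The 20-min minus 0-min signal was scaled between DMSO/no-enzyme wells and ADEP (5.8 microM final).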
gsp antag: gsp mutant antagonism; gsp-mutant cells, cAMP HTRF, 30 min; control for the full effect not named in the record; 0.4% of 340,000 active; Potency, µM (highest dose often 76.9 µM), inactives show at the top dose activity change, negative = inhibition, usual class: inhibitors; active = falling curve of any shape with a large fitted effect; inconclusive = falling curve, mostly with a smaller effect; inactive = flat or rising curve; cell line not stated here;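 further: intracellular cAMP measured with PDE inhibitor Ro 20-1724 present during compound exposure; potency means the concentration at half of the fitted maximal effect; on the % scale 0 is the no-effect control and ±100 the full control effect; nearly all actives have a fitted effect of over 65% in size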
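Measurement of cellular cAMP by homogeneous time-resolved fluorescence following a 30 min compound exposure at 37C. The PDE inhibitor […] was present throughout; the assay buffer was DPBS with 0.05% BSA and 0.005% Tween 20.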
Menin-MLL FL inh: displaces fluorescein MLL peptide from human menin | 290,000 tested, under 10 active | Fluorescence polarization, fluorescein-MLL peptide displacement from menin | FP activity change, % at 61.4 µM; inconclusive = falling polarisation curve, or a change in total fluorescence; inactive = total fluorescence flat and polarisation flat or rising; no compound was filed as active; the % refers to the polarisation; negative = inhibition;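 further: % of control where 0% means no effect; inhibitors lower the polarisation; unlabelled MLL peptide was the positive control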
D2 agonist: human D2 receptor agonism in beta-arrestin assay; DiscoveRx PathHunter D2 beta-arrestin, luminescence, 90 min; 100% = 57 uM dopamine signal; 0.084% of 360,000 active; P14416; activation, % (no concentration beside the values); in the data active = activation above about 40%; inconclusive = about 15% to 40%; inactive = below about 15%; further: compound concentration not given in the record; the text of the record calls up to 30% inactive
Target sequence (P14416 whole entry, looked up): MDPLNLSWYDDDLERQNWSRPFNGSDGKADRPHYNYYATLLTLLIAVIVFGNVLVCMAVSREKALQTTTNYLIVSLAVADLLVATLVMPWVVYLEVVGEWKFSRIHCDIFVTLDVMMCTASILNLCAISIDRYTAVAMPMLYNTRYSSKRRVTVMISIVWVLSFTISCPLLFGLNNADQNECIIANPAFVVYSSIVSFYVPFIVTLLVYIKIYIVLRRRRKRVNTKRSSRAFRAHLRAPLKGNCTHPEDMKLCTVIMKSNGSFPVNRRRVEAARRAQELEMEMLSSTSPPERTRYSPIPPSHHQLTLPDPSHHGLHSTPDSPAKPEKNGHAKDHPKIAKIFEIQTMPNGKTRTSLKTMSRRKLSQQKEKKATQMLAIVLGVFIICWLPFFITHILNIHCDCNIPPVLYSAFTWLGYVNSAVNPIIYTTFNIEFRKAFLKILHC
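Agonist mode: compounds alone added to overnight-plated D2 PathHunter cells for 90 min at 37 C, with 57 uM final dopamine (EC100) defining full response. Beta-arrestin recruitment detected by chemiluminescent reagent, read after 1 h at ambient temperature.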
Sfp inh: blocks B. subtilis Sfp PPTase activity; 3.5% of 310,000 active; Biochemical Sfp PPTase activity, qHTS; Potency, µM, inactives show max response, negative = inhibition, actives largely listed as inhibitors; active means well fitted inhibition curve with a large enough effect; inconclusive means small, poorly fitted or top-dose-only effect, or another doubt; inactive means no such curve, though single readings can be large or run the other way;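 further: the enzyme is Sfp with the accession as filed and its product quenches rhodamine fluorescence; potency means the concentration at half of the fitted maximal effect; 0% = enzyme reaction without inhibitor and -100% = no enzyme wells; top concentration of the series not given in the record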
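Compounds were incubated with enzyme (final 15 nM) for 15 min at room temperature before substrate addition started the reaction. Fluorescence at 525 nm excitation, 598 nm emission was recorded immediately and after 30 minutes.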
Numbers without * were called inactive; ? = inconclusive; / = not tested or not shown; & = joins results of further samples; [ ] = another dose, or the depositor's remark.

SMILES	PINK1 modulator	gsp ag	ClpP mod	gsp antag	Menin-MLL FL inh	D2 agonist	Sfp inh
COc1ccc(-c2ccc(=O)n(CC(=O)NCc3ccco3)n2)cc1	-2.0%	-21%	25µM*	12%	4.8	-2.5	12%
COc1ccc2c(c1)c(=O)oc1cc(OCC(=O)N3CCCC(C)C3)ccc12 (configuration not stated)	0.6%	2%	?	?	2.2	3.2	6%
COc1ccc(NC(=O)N(C)C[C@H]2Oc3ccc(NC(=O)Nc4ccc(C(F)(F)F)cc4)cc3C(=O)N([C@H](C)CO)C[C@@H]2C)cc1	1.9%	/	1.4%	5%	/	2.6	/
Cc1nc(C(F)(F)F)ccc1C(=O)N1CCCC1(C)C(=O)NCC(C)C (configuration not stated)	0.4%	/	-3.5%	/	/	13	/
N#Cc1ccccc1OCC(=O)OCC(=O)c1c[nH]c2ccccc12	4.6%	-2%	1.2%	-9%	/	6.3	/
O=C(Nc1ccc2oc(-c3ccccc3)nc2c1)c1ccco1	9.1%	-7%	51%	-22%	8.4	1.9	0%
CC(NC(=O)/C(C#N)=C/c1ccc([N+](=O)[O-])o1)c1ccccc1 (configuration not stated)	3.0%	-1%	-1.5%	-25%	?	-2.5	-18%
COc1cc(NC(=O)c2ccccc2Cl)c(OC)cc1NC(=O)CN1CCOCC1	-2.1%	-49%[inhibitor]	-2.5%	8%	2.2	-2.8	10%
COc1cc(CNC2CCCC2)cc(OC)c1	/	-71%[inhibitor]	-0.8%	-8%	-1.2	-1.3	-6%
O=C(CN1C(=O)c2ccccc2C1=O)Oc1ccc(Cl)cc1	0.8%	1%	-1.2%	-4%	0.6	7.1	7%
CC(C)(C)OC(=O)C[C@H]1C/C=C\C[C@@H](CC(=O)N(CCO)Cc2ccccc2)C(=O)N2CCC[C@@H]2COC1=O	5.9%	/	1.3%	-7%	/	-2.3	/
CCCn1c(=O)c(C(=O)N/N=C/c2ccccc2F)c(O)c2ccccc21	3.2%	-7%[15.4 µM]	/	12%	0.2	-6.2	1%
Cc1ccnc(NC(=O)CCC(=O)N(CC(=O)NCCc2ccccc2)c2ccc(F)cc2)c1	2.9%	-1%	/	9%	-4.5	1.1	-7%
COc1ccc(NC2c3ccccc3C(=O)N2Cc2ccc3c(c2)OCO3)cc1 (configuration not stated)	1.7%	-2%[15.4 µM]	/	-17%	9.3	-1.7	-11%
O=C(O)c1c(-c2ccccc2)oc2ccc(O)cc12	1.0%	9%	3.6%	-1%	-5.5	-1.0	1%
COc1ccc2oc(C(=O)OCC(=O)NCC3CCCO3)c(C)c2c1 (configuration not stated)	0.7%	-11%	13µM*	13%	/	-1.2	/
CC(=O)NCCNc1nc2cc(-c3cccc(Cl)c3)sc2c(=O)n1C	2.4%	/	-24%	/	/	-2.9	/
ON=C1c2ccccc2-c2ccccc21	-3.0%	?	1.8%	12%	2.5	2.8	5%
CC(C)(C)C(=O)NC(=S)Nc1sc2c(c1C#N)CCCCC2	14%	24%	1.8%	-26%	0.9	-5.5	45µM*
O=C(c1cc2sccc2n1Cc1ccccc1)N1CCc2ccccc21	-0.5%[38.3 µM]	22%	-3.6%	1%	1.5	-2.2	14%
COc1cccc2c(=O)c3c(cnn3C)n(C)c12	-0.1%	10%	45%	1%	5.2	-4.4	14%
CC(C)COc1ccc(C(=O)NNC(=O)c2ccc(=O)[nH]c2)cc1	-1.9%	-36%[inhibitor]	-2.4%	10%	/	-4.7	/
COc1ccc(S(=O)(=O)NCC(c2ccc(F)cc2)N2CCN(C)CC2)cc1 (configuration not stated)	-0.6%	-4%	-0.2%	3%	/	-3.0	/
Cc1cc(C)n2nc(SCC(=O)N(C)Cc3ccccc3)nc2n1	2.0%[38.3 µM]	21%	-3.7%	8%	4.4	-1.0	2%
COc1ccc(S(=O)(=O)N2CCC(C(=O)N(C)Cc3ccc(C)o3)CC2)cc1OC	0.0%	-52%[inhibitor]	-3.5%	-1%	/	-3.7	/
Cc1ccc(C2(c3noc(CN(C)CCO)n3)CCCC2)cc1	-0.8%	?	/	2%	-2.7	1.6	8%
Cc1ccc(-c2csc3ncnc(-n4cnc5ccccc54)c23)cc1	5.2%	1%	28µM*	-2%	1.1	2.7	-9%
CCOCC(=O)Nc1ncc(S(=O)(=O)c2ccc([N+](=O)[O-])cc2)s1	-0.1%	8%[15.4 µM]	/	-18%	-1.2	?	-1%
O=c1[nH]c2ccccc2nc1N1CCOCC1	-1.2%	0%	-0.5%	8%	4.2	-0.8	15%
O=C(Nc1ccc(N2CCOCC2)cc1)c1ccc(Cl)c(S(=O)(=O)N2CCCC2)c1	1.6%	-37%[inhibitor]	37%	-18%	/	-1.9	/
COc1ccc(C(CNC(=O)C(C)(C)Oc2ccc(Cl)cc2)N2CCOCC2)cc1 (configuration not stated)	-2.1%	11%	-0.6%	-11%	/	-6.8	/
Cc1cccc(-n2nc3c(c2NC(=O)C(C)C)CSC3)c1	1.9%	1%	-1.6%	-10%	-1.3	-3.6	30%
COCCNC(=O)Cn1nc(-c2ccccc2C)ccc1=O	2.9%	2%	-1.9%	19%	0.7	-3.2	17%
CCN1CC2=C(OC(N)=C(C#N)C2c2cccs2)/C(=C/c2cccs2)C1 (configuration not stated)	-3.2%	5%	-1.8%	-26%	?	-1.7	-8%
COc1ccc(CNC(=O)c2ccc(CS(=O)(=O)c3ccc(OC)cc3)o2)cc1	0.6%&1.1%	-243%[inhibitor]	-3.0%&-0.3%	/	/	-0.3	/
CCOC(=O)C1=C(CCc2ccccc2)NC(=O)NC1c1cccc([N+](=O)[O-])c1 (configuration not stated)	0.4%	/	-0.5%	-9%	0.6	-0.3	15%
O=C(O)CCNC(=O)/C(=C\C=C\c1ccccc1)NC(=O)c1ccccc1	-0.6%	16%[15.4 µM]	/	-2%	3.7	-2.1	16%
CC(=O)Nc1ccc(Nc2cc(C)nc3c(-c4ccccc4)cnn23)cc1	-1.6%	8%	-0.9%	?	1.0	1.7	-1%
O=C(Cc1ccc(Cl)cc1)Nc1ccncc1	-0.9%	10%[15.4 µM]	329%	0%	5.2	7.6	13%
COC(=O)C(Cc1ccccc1)NC(=O)CNC(=O)c1ccc(Br)o1 (configuration not stated)	0.0%	-3%	-2.0%	3%	/	-3.0	/
C=CCn1c(SCc2nc3ccccc3c(=O)[nH]2)nc2scc(C3CC3)c2c1=O	-0.9%	-4%[15.4 µM]	/	2%	5.8	-0.9	56µM*
CCc1nc2c(OCCOC)cccn2c1N(C)C(=O)Nc1ccccc1OC	-0.4%	/	-19%	/	/	-0.7	/
Nc1nc2ccccc2n1C(=O)c1ccccc1	12%	-38%[inhibitor]	0.8%	-11%	2.0	-1.8	14%
Cc1ccccc1-c1ncc(CN2CCC(CO)(CCCc3ccccc3)CC2)cn1	1.8%	-1%	-0.6%	-1%	7.0	-3.2	2%
COCc1cc(CN2CCN(C)CC2)c(O)c2ncccc12	17%	-27%	-5.6%	-2%	-1.9	6.0	17%

Sorted by length of the SMILES (rising): three of the compounds above
SMILES	PINK1 modulator	gsp ag	ClpP mod	gsp antag	Menin-MLL FL inh	D2 agonist	Sfp inh
COc1cc(CNC2CCCC2)cc(OC)c1	/	-71%[inhibitor]	-0.8%	-8%	-1.2	-1.3	-6%
COc1cccc2c(=O)c3c(cnn3C)n(C)c12	-0.1%	10%	45%	1%	5.2	-4.4	14%
O=C(CN1C(=O)c2ccccc2C1=O)Oc1ccc(Cl)cc1	0.8%	1%	-1.2%	-4%	0.6	7.1	7%

(continued)
SMILES	PINK1 modulator	gsp ag	ClpP mod	gsp antag	Menin-MLL FL inh	D2 agonist	Sfp inh
CC1CN(C(=O)c2scc3c2OCCO3)CC(C)O1 (configuration not stated)	-0.1%	-20%	-0.3%	-2%	3.4	-1.6	15%
CCNC(=O)CC1C(=O)N(c2cccc(C)c2)C(=O)N1CCC(C)C (configuration not stated)	1.6%	-3%[15.4 µM]	-0.6%	12%	-1.8	-3.3	2%
Cn1c(=O)c2c(ncn2CC(=O)OCC(=O)Nc2cccc(C#N)c2)n(C)c1=O	0.7%	?	-1.9%	/	/	-3.5	/
Cc1ccccc1OCc1nnc(SCc2cc(=O)[nH]c3ccccc23)n1-c1ccccc1	-0.7%	3%	-2.4%	-24%	0.0	-6.6	56µM*
O=C(NCc1ccc(F)cc1)C1CCCN1S(=O)(=O)c1ccc(F)cc1 (configuration not stated)	0.0%	-43%[inhibitor]	-1.5%	/	/	-2.5	/
NC(=O)C1CCN(c2nc(C3CC3)nc3c2nnn3Cc2ccccc2Cl)CC1	11µM*	-4%	-12%	3%	3.8	-2.1	-18%
O=C(Nc1ccccc1)c1ccccc1Br	2.4%	/	0.4%	/	/	-2.0	/
CCCn1c(SCC(=O)NCC2CCCO2)nc2c1c(=O)n(C)c(=O)n2C (configuration not stated)	1.5%	?	3.3%	1%	-1.1	-0.5	10%
O=C(COC(=O)c1ccc[n+]([O-])c1)Nc1ccccc1OC(F)F	-1.3%	?	/	9%	/	-3.3	/
O=C(Nc1ccc(F)cc1)c1ccc(CSc2ccc(Cl)cc2)o1	17%	?	/	?	2.0	2.5	4%
CC1(C(=O)NS(=O)(=O)c2cccs2)CCN1C(=O)Cc1ccc(Cl)cc1Cl (configuration not stated)	0.9%	/	2.7%	/	/	4.5	/
COc1ccc(Nc2ncnc3c2cnn3-c2cccc(C)c2)cc1OC	1.1%	0%	-2.8%	6%	7.5	-2.7	13%
C=CCc1ccccc1OCC(=O)OCCNC(=O)c1cccnc1	-0.6%	-20%	0.9%	-1%	-0.2	-1.6	?
Cc1cccc(C)c1Nc1nnc(SCC(=O)c2ccc(Br)s2)s1	-0.1%	-9%	-2.3%	18%	5.6	-1.0	2%
CCN(CC)c1ccc(NC(=O)c2ccco2)cc1	-4.9%[38.3 µM]	-19%	-0.8%	-23%	6.4	-0.4	-7%
CCC1(C)Cc2c(sc3nc(NN)n(C)c(=O)c23)CO1 (configuration not stated)	3.2%	23%	-0.7%	-1%	0.1	-0.4	-2%
O=C(Nc1nc(-c2ccccn2)cs1)c1ccc(F)c(S(=O)(=O)N2CCOCC2)c1	1.6%	-25%	-1.0%	-24%	/	8.7	/
Cc1ccc(/C=N/Nc2ccc3ccccc3n2)o1	2.6%	3%[15.4 µM]	/	-4%	-6.0	-0.3	9%
